Six1-Eya2 inh: Six1/Eya2 interaction inhibition; Q15475+O00167; AlphaScreen GST-Six1/His-Eya2 binding, biochemical; hits give low values; control for the full effect not named in the record; activity change, % (test concentration not listed); hit rate 0.56% among 360,000; AID 651725; in the data active = activity change below about -65%; inconclusive = about -30% to -65%; inactive = above about -30%; further: on the % scale 0 is the no-effect control and ±100 the full control effect; compound concentration not given in the record
Target sequence (O00167 whole entry, looked up): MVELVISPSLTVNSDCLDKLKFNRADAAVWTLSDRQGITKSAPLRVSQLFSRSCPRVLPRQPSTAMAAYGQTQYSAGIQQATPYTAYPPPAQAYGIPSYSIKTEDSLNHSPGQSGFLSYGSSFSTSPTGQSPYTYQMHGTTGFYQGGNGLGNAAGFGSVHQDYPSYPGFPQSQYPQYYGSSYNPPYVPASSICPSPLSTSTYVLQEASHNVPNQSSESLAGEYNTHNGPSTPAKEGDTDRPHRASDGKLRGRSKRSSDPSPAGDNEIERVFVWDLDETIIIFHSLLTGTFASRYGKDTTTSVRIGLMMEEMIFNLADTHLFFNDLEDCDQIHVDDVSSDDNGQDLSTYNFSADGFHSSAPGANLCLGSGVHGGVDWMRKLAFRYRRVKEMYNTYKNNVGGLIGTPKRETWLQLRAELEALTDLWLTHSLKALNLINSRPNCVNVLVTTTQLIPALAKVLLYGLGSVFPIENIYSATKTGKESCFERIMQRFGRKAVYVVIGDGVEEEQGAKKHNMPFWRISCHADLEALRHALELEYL
Target sequence (Q15475 whole entry, looked up): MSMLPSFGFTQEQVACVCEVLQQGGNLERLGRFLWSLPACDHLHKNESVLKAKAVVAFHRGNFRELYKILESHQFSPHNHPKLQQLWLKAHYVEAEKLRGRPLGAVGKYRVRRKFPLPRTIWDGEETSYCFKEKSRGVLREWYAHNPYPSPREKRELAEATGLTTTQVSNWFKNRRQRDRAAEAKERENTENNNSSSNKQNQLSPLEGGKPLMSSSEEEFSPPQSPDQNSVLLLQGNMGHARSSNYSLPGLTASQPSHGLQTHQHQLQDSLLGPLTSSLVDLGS
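Six1/Eya2 binding was read as AlphaScreen signal after compounds were pinned into GST-Six1 plus His-tagged Eya2 (5X stock 250/500 nM) in pH 8.0 Tris/NaCl/TCEP buffer, beads added, then incubated 1 h, 37 C, dark.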
CtBP-E1A inh: inhibitors of CtBP/E1A interaction; AlphaScreen GST-E1A/His-CtBP binding, 1536-well; hits give low values; control for the full effect not named in the record; hit rate 0.49% among 340,000; activity change, % (test concentration not listed); in the data active means activity change below about -65%; inconclusive means about -30% to -65%; inactive means above about -30%; further: on the % scale 0 is the no-effect control and ±100 the full control effect; compound concentration not given in the record
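GST-E1A and His-tagged CtBP (125 nM each as 5X stock) were preincubated with pin-transferred compound for 2 h at 37 °C in the dark, then glutathione donor and nickel acceptor beads were added for 1 h before AlphaScreen reading.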
PINK1 expr mod: modulators of PINK1 expression; Potency, µM (series often up to 76.6 µM), for the others: at the top dose activation (PINK1 increase), usual class: activators; PINK1 immunofluorescence, high-content cytometry, 24 h; hit rate 0.2% among 410,000; active = well fitted activation curve with a large enough effect; inconclusive = small, poorly fitted or top-dose-only effect; inactive = flat fitted curve, though single readings scatter; cell line not stated here;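 further: potency means the concentration at half of the fitted maximal effect; % of control where 0% means no effect; nearly all actives have a fitted effect of over 65% in size; a mitochondrial uncoupler was the plate control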
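PINK1 protein level read as immunofluorescence by microplate cytometer in a fixed, stained stable cell line after 24 h exposure to five compound concentrations, with CCCP as control.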
TRPML1 blocker: inhibitors of human TRPML1 channel; TRPML1-inducible cells, Ca2+ dye fluorescence, FDSS; hits give low values; inhibition of EC80 agonist-evoked calcium signal; activity change, negative = inhibition, % (concentration not given with the values); hit rate 0.02% among 390,000; AID 624415; in the data active means activity change below about -50%; inconclusive means about -30% to -50%; inactive means above about -30%;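 further: stimulus is agonist 54-4 at its EC80 concentration; on the % scale 0 is the no-effect control and ±100 the full control effect; compound concentration not given in the record; the text of the record puts the active cut at -80%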
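Tet-induced TRPML1-DL cells loaded with Ca8 no-wash calcium dye were read kinetically on FDSS. Compound addition was followed by EC80 agonist 54-4 (4 uM final); inhibition was read over 110 s.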
TRPML1 ag: activates the human TRPML1 channel. Q9GZU1. TRPML1-expressing cells, Ca2+ dye fluorescence, FDSS; host cell line not named in the record; reference of the full effect not given here. activation, % (no concentration beside the values). AID 624414. hit rate 0.12% among 410,000; in the data active = activation above about 50%; inconclusive = about 30% to 50%; inactive = below about 30%; further: 0% is about no effect; the text of the record puts the active cut at 80%
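TRPML1-DL cells, Tet-induced overnight (~16 h, 37 degrees C), loaded 45-90 min at room temperature with Ca8 no-wash calcium dye plus quencher. FDSS fluorescence: 10 s baseline, compound pin-transfer, 110 s agonist read, then EC80 54-4 (4uM final) and 110 s antagonist read.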
D2 ag: agonists of human D2 dopamine receptor (beta-arrestin). P14416. DiscoveRx PathHunter D2 beta-arrestin, luminescence, 90 min; 100% = 57 uM dopamine signal. activation, % (no concentration beside the values). hit rate 0.084% among 360,000. AID 624465; in the data active = activation above about 40%; inconclusive = about 15% to 40%; inactive = below about 15%; further: compound concentration not given in the record; the text of the record calls up to 30% inactive
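DiscoveRx PathHunter D2 beta-arrestin cells (2,100/well) attached overnight, then compound-stimulated 90 min at 37 C in HBSS/10 mM HEPES/0.1% Tween-20 buffer; beta-galactosidase complementation read by luminescence after 1 h at ambient temperature. Dopamine 57 uM final (EC100) as control.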
An asterisk follows results filed as active; ? = inconclusive; . = no result given; & = joins results of further samples; [ ] = another dose, or the depositor's remark.

SMILES	Six1-Eya2 inh	CtBP-E1A inh	PINK1 expr mod	TRPML1 blocker	TRPML1 ag	D2 ag
O=C(Nc1cc2c(cc1Br)OCCCO2)c1ccccc1	15	3	0.9%	-14	1.8	-1.4
Cc1ccc(-c2c(C#N)c(N)n(-c3ccc(C)cc3)c(=O)c2C#N)cc1	4	10	11%	-10	1.5	-1.5
O=C(Cn1ncc2c3ccccc3n(Cc3ccccc3F)c2c1=O)N1CCCCC1	.	.	0.2%	-7	-1.0	.
CC(=O)c1coc2c1cc(O)c1ccccc12	-1	-3	1.1%	15	0.2	4.0
CCOC(=O)c1c(NC(=O)c2ccco2)sc(C(=O)N2CCCC2)c1C	5	9	-1.4%	40	0.0	0.2
CC(=O)N1CCc2cc(S(=O)(=O)CCC(=O)NCc3ccc(F)cc3)ccc21	3	-13	1.9%	13	0.9	-2.5
O=[N+]([O-])c1cccc(/C=N/Nc2cc(N3CCOCC3)ncn2)c1	1	.	1.1%	10	2.6	-2.6
O=C(CCC1CCCN(C(=O)c2cncs2)C1)NCc1ccc(F)c(F)c1 (centres undefined)	6	0	-2.1%	-13	1.4	2.3
COC(=O)c1cc2ccsc2n1CC(=O)Nc1cc(C)cc(C)c1	-2	-4	7.7%[38.3 µM]	10	1.3	1.9
CSc1ccc(CNCc2c(C(=O)O)c(C)n(Cc3ccc(F)cc3Cl)c2C)cc1	.	.	-0.9%	-6	-0.6	.
CCCCNC(=O)NC1CCCC1	-8	-19	-1.6%	25	0.0	-0.3
Cc1ccc(C(=O)Oc2ccc([N+](=O)[O-])cc2)cc1S(=O)(=O)N1CCCCCC1	-85*	-4	11%	49	1.0	-1.1
O=C1CCCc2c1nc(-c1ccccc1)n2O	4	6	2.2%[38.3 µM]	-6	1.1	0.8
Cn1c(CCCOc2ccc(Cl)cc2Cl)nnc1SCC(=O)Nc1cccc(F)c1	2	10	2.0%	22	0.0	-4.3
Cc1cccc(COC[C@H](Cc2ccccc2)N2CCN(C(=O)c3cccc(C)c3)CCC2=O)c1	7	4	-0.8%	.	-1.3	.
O=C(NC1CCCC1)C(c1ccncc1)N(C(=O)c1csnn1)c1ccc(F)c(Cl)c1 (centres undefined)	10	7	2.5%	0	0.6	-2.0
CCCC(=O)Nc1nnc(SCC(=O)Nc2ccc(OCC)cc2)s1	-21	-6	6.7%	6	-0.5	-0.9
Cn1c(=O)[nH]c(=O)c2c1nc(OC(=O)c1ccccc1)n2CC(O)COc1ccc(F)cc1 (centres undefined)	-2	-3	2.8%[38.3 µM]	7	-0.1	0.1
COc1cccc(-c2nnc(SCC(=O)N(C(C)C)C(C)C)o2)c1	-4	-2	?	5	-0.6	-1.7
COc1ccc(C2CC(c3ccccc3)=NN2S(=O)(=O)c2ccccc2)c(OC)c1 (centres undefined)	7	0	3.6%	-10	0.8	0.0
O=C(/C=C/c1cccs1)c1cc(Cl)ccc1O	9	10	7.1%	-9	2.4	0.5
Clc1ccc(OCCN2CCCCC2)cc1Cl	-8	17	-1.5%	-9	-0.1	-2.0
Cc1cccc(-n2c(CNC(=O)c3cccc(F)c3)nnc2SCC(=O)Nc2ccccc2F)c1	.	.	-1.2%	19	0.8	.
O=C(c1ccc(CS(=O)c2ccccc2Cl)o1)N1CCN(c2cccc(Cl)c2)CC1 (centres undefined)	.	.	4.9%	25	-0.4	.
COc1ccc(-c2noc(-c3ccc(Cl)cc3[N+](=O)[O-])n2)cc1OC	-27	?	7.6%	6	2.5	?
O=S(CC(O)c1ccccc1)c1ccccc1 (centres undefined)	6	2	1.9%	13	-0.5	-4.2
COC(=O)[C@@H](Cc1ccccc1)NC(=O)CC[C@H]1O[C@@H](n2cc(C)c(=O)[nH]c2=O)C[C@@H]1O	4	7	-0.6%	1	-0.6	-2.0
O=C(Nc1c(C(=O)c2ccc(Cl)cc2)oc2ccccc12)c1cc(=O)c2ccccc2o1	.	.	-0.7%	-7	-1.1	.
Cc1ccccc1NC(=O)c1ccc(S(=O)(=O)C(F)F)cc1	11	4	2.2%	-11	-0.3	-3.0
COc1ccc(C(CNC(=O)C(=O)Nc2ccc3c(c2)OCO3)N2CCN(C)CC2)cc1 (centres undefined)	-1	6	3.0%	12	-0.3	1.6
COc1ccccc1C(=O)Nc1ccc(-c2cc(C(F)(F)F)nn2-c2ccccc2)cc1	.	.	13%	-2	1.9	.
O=C(Nc1cccc(Cl)c1)OCc1ccccn1	1	5	-0.6%	-21	-0.5	-2.6
COc1cccc(-c2noc(C3CCCN(C(=O)Cc4ccccc4)C3)n2)c1 (centres undefined)	1	1	1.0%[38.3 µM]	-9	-0.3	-3.5
CCc1ccccc1N(C)C(=O)Nc1cn(CC(C)C)c(=O)c2ccccc12	.	.	-3.2%	0	1.0	.
O=C(Nc1ccc(F)c(Cl)c1)Nc1c[nH]c(=O)[nH]c1=O	.	.	2.6%	21	3.7	.
O=C(CC[C@H]1O[C@@H](n2ccc(=O)[nH]c2=O)[C@H](O)[C@@H]1O)NCc1cccc2ccccc12	24	22	1.5%	2	0.4	-3.5
CN(C)CCOC(=O)C12CC3(C)CC(C)(CC(C)(C3)C1)C2	-1	32	6.6%[38.3 µM]	13	0.5	-3.3
CC(C)Nc1ncnc2c1ncn2[C@H]1CN(Cc2ccc(Cl)cc2)C[C@@H](CO)O1	10	-2	2.3%	.	0.1	4.6
CCN1CCN(c2ncnc3c2cnn3-c2ccc(F)cc2)CC1	.	.	0.4%	-22	-0.7	.
CCN(CC(=O)NCc1cccs1)C(=O)COc1ccccc1C#N	0	1	-1.2%	-7	4.2	-1.9
O=C(c1cccc2ccccc12)C1CCCN(C(=O)C2CCOCC2)C1 (centres undefined)	3	-3	-0.2%	5	2.0	-1.4
CC(C)NC(=O)c1ccc(C2SCC(=O)N2Cc2ccccc2)cc1 (centres undefined)	1	1	.	-2	0.7	2.2
CCC(C)NC(=O)c1ccccc1-c1nc2ccccc2[nH]1 (centres undefined)	2	-1	1.6%	-6	1.6	-1.9
CCc1nc2ccc(C)cc2c(C(=O)Oc2cccc3cccnc23)c1C	1	-4	.	-7	1.5	-1.2
Nc1sccc1C(=O)c1ccccc1	-3	-1	0.7%	11	-1.5	-1.6

The closing four entries of the section above come first, to join the parts.
SMILES	Six1-Eya2 inh	CtBP-E1A inh	PINK1 expr mod	TRPML1 blocker	TRPML1 ag	D2 ag
CC(C)NC(=O)c1ccc(C2SCC(=O)N2Cc2ccccc2)cc1 (centres undefined)	1	1	.	-2	0.7	2.2
CCC(C)NC(=O)c1ccccc1-c1nc2ccccc2[nH]1 (centres undefined)	2	-1	1.6%	-6	1.6	-1.9
CCc1nc2ccc(C)cc2c(C(=O)Oc2cccc3cccnc23)c1C	1	-4	.	-7	1.5	-1.2
Nc1sccc1C(=O)c1ccccc1	-3	-1	0.7%	11	-1.5	-1.6
O=C1c2cccc(OCC(=O)N3N=C(c4cccs4)CC3c3ccc(F)cc3)c2CCN1Cc1ccccc1 (centres undefined)	-7	-10	0.9%	-15	0.1	-1.6
CN(CCC#N)S(=O)(=O)c1ccc2[nH]cc(C(=O)NCCc3ccccc3)c(=O)c2c1	-9	-17	3.6%	-8	0.5	0.4
CCOC(=O)c1sc(=S)n(-c2ccccc2)c1SC	-9	-8	7.2%	8	1.1	-1.9
FC(F)(F)c1cccc(CN2CCSCC2)c1	1	-1	3.9%	-5	-0.5	5.6
CCS(=O)CC(=O)Nc1c(-c2ccccc2)oc2ccccc2c1=O (centres undefined)	9	5	-0.6%	5	-0.5	-3.1
Cc1ccc(NC(=O)c2cc(S(=O)(=O)N3CCOCC3)ccc2Cl)cc1S(=O)(=O)N1CCOCC1	-2	-7	-0.8%	1	-0.7	-1.5
[O-][N+]12CCCCC1CCCC2CO (centres undefined)	3	.	0.4%	17	-0.3	-6.0
Cc1ccc(-c2nc(C)c(CCNC(=O)c3ccccc3Br)s2)cc1	.	.	2.6%	24	4.3	.
Clc1ccc(-c2noc(-c3cccnc3NCc3ccco3)n2)cc1	.	.	4.2%	6	-0.7	.
COc1ccc(NC(=O)Cn2c(=O)n(Cc3nc(-c4ccccc4)no3)c(=O)c3ccccc32)cc1Cl	.	.	1.2%	20	-0.7	.
CCN1CCN(c2nc(-c3ccccc3Cl)nc3ccccc23)CC1	0	.	0.5%	-12	0.0	-8.1
COc1ccc(-c2nc(C#N)c(NCc3ccccc3Cl)o2)cc1	-1	6	?	27	0.4	1.4
Cc1ccc(Cn2nc(C)c(NC(=O)CCCn3nc(C)c([N+](=O)[O-])c3C)c2C)cc1	12	-3	-1.8%	3	-0.2	-1.7
Oc1ccc(Cl)cc1/C=C/c1ccc2cccc(O)c2n1	3	-11	-0.9%	-10	-0.5	4.7
COc1cccc(N2CCN(CC(=O)Nc3ccnn3C3CCCC3)CC2)c1	1	2	-0.8%	1	0.2	-2.8
COc1ccc(C(CNC(=O)c2ccc(C)c(S(=O)(=O)N3CCCCC3)c2)N2CCCC2)cc1 (centres undefined)	3	0	-0.3%	14	-0.1	8.2
Cn1c(CSc2nc3ccccc3s2)nnc1SCC(=O)NCc1ccccn1	-2	4	-1.2%	-4	-1.3	-2.9
CN(Cc1cnn(-c2ccc(F)cc2)c1)C(=O)[C@H]1O[C@@H](n2ccc(N)nc2=O)[C@H](O)[C@@H]1O	6	8	0.6%	.	0.1	-6.5
CCN1CCN(Cc2ccc(NC(=O)c3cc(NC(=O)C4=NN(c5ccccc5)C(=O)C4)cc(OC)c3)cc2C(F)(F)F)CC1	0&-2	-9	1.8%&3.1%	3&-20	0.1&0.1	-2.4&-3.7
Cc1onc(-c2ccccc2)c1C(=O)NCC1CCN(C(=O)c2c(-c3ccccc3)noc2C)CC1	5	-1	-0.7%	-1	0.2	-1.6
CC1=C(C)C(=O)C(N2CCOCC2)=CC1=O	-2	-3	-0.5%	0	-0.2	0.9
CC(C)=CC(=O)OCC(=O)Nc1ccc(F)cc1Cl	10	3	-1.1%	-15	0.3	-2.3
CC1=N/C(=C\c2ccc([N+](=O)[O-])cc2)C(=O)N1c1ccc(Cl)cc1	-5	9	.	3	-0.1	0.4
COc1ccccc1C(=O)Nc1ccc(C(=O)N2CCCCC2)cc1	9	-4	-1.2%	-2	0.7	-1.6
COC(=O)c1ccc(NC(=O)CS(=O)(=O)Cc2ccccc2)cc1	24	1	-1.2%	-7	-1.3	-3.5
O=[N+]([O-])C(/C=C(\Cl)[N+](=O)[O-])=C(N1CCCCC1)N1CCCCC1	-13	-13	-1.0%	2	-0.3	-2.2
O=C(CNC(=O)c1ccc(Br)o1)NCc1cccc(Cl)c1	1	1	-1.2%	-7	-0.2	3.9
COc1cc2c(C(=O)N(C)c3cc(Cl)ccc3OC)cn(C)c(=O)c2cc1OC	-2	-26	2.5%	10	0.4	-4.7
CC(=O)c1c(C)[nH]c(C(=O)CSc2nnc(-c3ccccc3)o2)c1C	-8	0	5.0%	3	0.1	-0.5

Screens deposited in PubChem by National Center for Advancing Translational Sciences (NCATS).
